Compound activity deposited in PubChem by several laboratories.
PrP 5UTR inh: inhibition of PrP 5' UTR reporter expression; cell-based PrP 5' UTR mRNA reporter, plate reader; inhibition, % (test concentration not listed); hit rate 0.35% among 340,000;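 active = every replicate at 50% or more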;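 note: 0 = median of the neutral control wells; tested in H4 reporter cells; numbers are from one replicate; inactives centre near -14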
Bead autofluor: counter-screen for toxin protease inhibitors: compound fluorescence. fluorescence intensity (concentration not given with the values). compound autofluorescence counterscreen, microsphere flow cytometry; stronger effect = higher value. hit rate 3.1% among 360,000;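 active = at least 3 SD above the mean of all compounds, about 16000 in these data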;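 note: 100 nL of 1 mM stock went into each well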
BJeLR lethal: BJeLR cell viability loss | BJeLR (HRASV12) viability, CellTiter-Glo ATP luminescence, 48 h; reference of the scale not given here | inhibition, % (concentration not given with the values) | hit rate 0.17% among 300,000 | AID 1554;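 active = replicate mean above 50%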;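 note: 50 nL library stock added to about 25 µL; numbers are from one replicate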
* hit, by the source's call; nt = not tested or not shown; & = joins results of further samples. Only part of the results is shown. The share of hits here may be higher or lower than overall.

SMILES	PrP 5UTR inh	Bead autofluor	BJeLR lethal
O=C1CS/C(=N/N=C/c2ccncc2)N1	nt	4301	-3.6
O=C(O)c1ccccc1/C=N/n1c(C2CCCCC2)n[nH]c1=S	nt	3713	1.4
CNC(=S)/N=C(\Nc1ccc(C)cc1)c1ccccc1	nt	6041	-1.7
O=C(Cc1cccs1)N/N=C/C=C/c1ccccc1[N+](=O)[O-]	nt	3240	-4.7
C/C(=N\NC(=O)c1nnn(-c2nonc2N)c1C(C)C)c1ccncc1	nt	3851	-2.2
S=c1[nH]nc(-c2ccncc2)n1/N=C/c1cn(-c2ccccc2)nc1-c1ccccc1	nt	3141	-4.2
COc1cccc(/C=N/NC(=O)Cn2cnc3c2c(=O)n(C)c(=O)n3C)c1	nt	5937	-2.2
O=C(N/N=C/c1[nH]c2ccccc2c1Cl)c1cccc(Br)c1	nt	6069	-7.0
Nc1c(Cl)c(Cl)nc(C(=O)N/N=C/c2cccnc2)c1Cl	nt	4273	-4.6
Cc1ccc(C)c(NC(=O)c2ccccc2C(=O)c2ccccc2)c1	nt	4911	0.1
O=C(N/N=C/c1ccc2nccnc2c1)c1ccc(Br)cc1	nt	6214	0.2
O=C1NC(=O)N(Cc2ccco2)C(=O)/C1=C\c1ccc(-c2ccc(F)cc2)o1	nt	3537	3.9
O=C(N/N=C/c1cccc2nccnc12)c1ccncc1	nt	5522	3.3
COc1ccc(/C(C)=N/NC(=O)c2ccc(CSc3cccc4cccnc34)cc2)cc1OC	nt	10983	-3.1
O=[N+]([O-])c1ccc(-c2ccc(/C=N/O)o2)cc1	nt	5967	1.2
CC1(C)CCc2cc(-c3ccn(S(=O)(=O)c4ccccc4Cl)n3)ccc2O1	nt	3227	-10.2
CC(/C=C/c1ccccc1)=N/NC(=O)Cn1nnc(N)n1	nt	4500	-0.5
C/C(=N\NC(=O)CSc1nc(C)cc(C)n1)c1ccc([N+](=O)[O-])cc1	nt	5718	11.1
Cc1cc(C)cc(OCC(=O)O/N=C(\N)Cc2ccc([N+](=O)[O-])cc2)c1	nt	5581	2.7
C/C(CC(=O)Nc1cccc(C(F)(F)F)c1)=N/NC(=O)C(=O)NCCO	nt	4579	2.8
Cc1[nH]c2ccccc2c1/C=N/NC(=O)c1cc(C(C)(C)C)[nH]n1	nt	4314	7.3
COc1cc(N2CCCC2)c(OC)cc1/C=C(/C#N)c1cccc(F)c1	nt	23531*	-1.8
Cc1ccccc1NC(=O)CCC(=O)N/N=C/c1ccncc1	nt	4990	5.0
Cc1oc(/N=C/c2ccc(Cl)cc2Cl)c(C#N)c1C	nt	9753	11.2
CC1=NN(c2ccc(Cl)c(C(=O)O)c2)C(=O)/C1=C/c1ccc(-c2ccccc2[N+](=O)[O-])o1	nt	3448	-0.7
O=C1CN(/N=C/c2ccc([N+](=O)[O-])o2)C(=O)N1	nt	4309	-6.7
COC(=O)c1ccc(COc2ccccc2/C=N/O)o1	nt	3354	-3.4
CCC[C@@H]1C[C@@H](C(=O)N[C@@H](C2O[C@H](SC)[C@H](O)[C@@H](O)[C@H]2O)[C@H](C)Cl)N(C)C1 (some centres undefined)	nt	6024	-4.1
CC1(C)CC2CC(C)(CN2/C=N/c2sc3c(c2C#N)CC(C)(C)NC3(C)C)C1 (centres undefined)	nt	5571	-0.3
NS(=O)(=O)c1ccc(CNC(=O)/C=C/c2ccco2)cc1	nt	3736	5.8
FC(F)(F)c1ccccc1/C=N/n1c(C2CCCCC2)n[nH]c1=S	nt	3688	-1.8
COc1ccc(CC(=O)N/N=C/c2c(C)n(C)c3ccccc23)cc1OC	nt	4671	10.1
C/C(=N\NC(=S)Nc1ccccc1)C1Cc2ccccc2C(=O)O1 (centres undefined)	nt	6505	5.7
CC(=O)Nc1ccc(NC(=O)C(=O)N/N=C/c2cccnc2)cc1	nt	4377	0.5
S=C(NCCc1ccccc1)N/N=C/c1cccs1	nt	5608	-2.0
Oc1ccc(Nc2ncnc3c2oc2ccccc23)cc1	nt	3521	-12.4
CCc1nnc(N/N=C/c2c(Cl)cccc2Cl)n1N	nt	9555	3.4
CC(C)C[C@@H](CN1CCCC1CN1C(=S)NC[C@@H]1Cc1ccc(O)cc1)N1C[C@H](Cc2ccc(O)cc2)N(CC2CCCCC2)C1=S (some centres undefined)	-16.6	4218	nt
C=CC[C@@H](CC(=O)N[C@@H](CO)Cc1ccccc1)C(=O)NC[C@@H](OC(=O)[C@@H](CC=C)CC(=O)OC(C)(C)C)c1ccccc1	-13.0	3530	nt
CC(NC(=O)C1CCCC1)c1ccccc1 (centres undefined)	-15.4	3146	nt
CCOC(=O)[C@H]1[C@H]2COc3ccc(OC)cc3[C@@H]2N2C(=O)c3ccccc3NC(=O)[C@@]12C	-5.2	2935	nt
COc1cc2c(cc1OC)C(C(N)=O)NCC2 (centres undefined)	-10.8	4326	nt
C/C(CC(=O)Nc1ccc(F)cc1)=N\NC(=O)c1ccccn1	-25.5	4238	nt
CN1OC[C@@H]2CN(Cc3ccccc3)[C@H](c3cccc(Oc4ccccc4)c3)C[C@@H]21	-2.5	3540	nt
CCC[C@@H](CN1CCC[C@H]1CN1C(N)=NC[C@@H]1Cc1ccccc1)N1C[C@@H](Cc2ccccc2)N(CCCC2CCCC2)C1=N	-9.1	4084	nt
C[C@H](CO)N1C[C@H](C)[C@@H](CN(C)S(=O)(=O)c2cccs2)Oc2c(NC(=O)CCC(F)(F)F)cccc2C1=O	4.5	3123	nt
O=C1CCc2cccc(O)c2N1	22.5	3917	nt
CC(CCN1CCC(CN2C(=S)NCC2Cc2ccccc2)CC1)c1ccccc1 (centres undefined)	-16.4	4377	nt
Nc1c(Br)cc2c([nH]c(=O)c3ccccc32)c1Br	50.2	3528	nt
Nc1ccc2c(c1)C(=NO)c1ccccc1-2	-36.4	3213	nt
CC[C@H]1C(=O)[C@@H](Cc2ccccc2)[C@@H]2CCN3C(=O)CCC[C@H]1[C@H]23	3.3	3493	nt
C=CC[C@@H](CC(=O)N[C@H](CO)Cc1ccccc1)C(=O)N[C@H](COC(=O)[C@H](CC=C)CC(=O)OC(C)(C)C)Cc1c[nH]c2ccccc12	-19.1	4137	nt
CCOC(=O)[C@H]1[C@H]2COc3ccc(C)cc3[C@@H]2N2C(=O)CN(CC3CCCO3)C(=O)[C@@]12C (some centres undefined)	-20.0	4034	nt
CC(C)(C)OC(=O)C[C@@H]1C/C=C\C[C@@H](CC(=O)NCCO)C(=O)N[C@H](Cc2ccccc2)COC1=O	-9.3	3637	nt
C=CC[C@H](CC(=O)NCCO)C(=O)N[C@@H](COC(=O)[C@H](CC=C)CC(=O)OC(C)(C)C)Cc1c[nH]c2ccccc12	-8.5	4080	nt
C[C@@H]1CN([C@H](C)CO)C(=O)Cc2cc(NC(=O)CCC(F)(F)F)ccc2O[C@@H]1CN(C)C(=O)Nc1ccccc1	-4.6	3877	nt
O=C1Nc2ccccc2C1=Nc1ccc2[nH]c3ccccc3c2c1	-12.1	2776	nt
CC(C)C[C@@H](CN)NC(=O)c1nc[nH]c1C(=O)N[C@@H](C)C(=O)CNC[C@H](CC(C)C)NC(=O)c1nc[nH]c1C(=O)N[C@@H](Cc1ccccc1)C(=O)O	26.3	3678	nt
Cc1ccccc1C(=O)N1Cc2cnnn2-c2ccccc2C1C#N (centres undefined)	-8.3	3013	nt
COc1ccc(/C=C2\C(=O)NC(=O)c3ccccc32)cc1OC	-39.1	5002	nt

Going on with the list:
SMILES	PrP 5UTR inh	Bead autofluor	BJeLR lethal
C#CCOCCOCCOCCNc1nc(N2CCN(C(=O)CCCCCCCCCCNC(=O)[C@H](CCCCN)n3cc(C[C@@H](C)CC)nn3)CC2)nc(N2CCN(C(=O)CCCCCCCCCCNC(=O)[C@H](CCCN=C(N)N)n3cc(C[C@@H](C)CC)nn3)CC2)n1	6.6	4333	nt
C[C@@H](OC(=O)N1CCCCC1)[C@H]1O[C@]2(C)CCCC[C@H]1O2	-14.9	2957	nt
CC(C)(C)[C@@H]1COC(=O)[C@H](Cc2ccc(F)cc2)C/C=C\C[C@@H](CC(=O)N(CCO)Cc2ccccc2)C(=O)N1	-21.5	4438	nt
COc1cccc(-c2sc3ccc(OC)cc3c2-c2ccc(O)cc2)c1	-2.8	2850	nt
COc1cc([C@@H]2CC=C(C(=O)O)[C@H](c3ccc(Cl)cc3)N2S(=O)(=O)c2ccc(C)cc2)cc(OC)c1OC	10.2	3745	nt
COC(=O)C1=C(c2cccc(OCc3ccccc3)c2)C[C@@H]2CC[C@H]1N2C(=O)NCc1ccc(C(C)(C)C)cc1	-16.4	2957	nt
ON=C1c2ccccc2-c2cc(Br)ccc21	-19.9	3708	nt
CC(C)(C)C1C/C(=C/c2ccco2)C(=O)/C(=C/c2ccco2)C1 (centres undefined)	-7.5	3915	nt
CC(C)(C)OC(=O)N1CCCC(C(=O)Nc2cccc(C(=O)NCc3ccccc3)c2)C1 (centres undefined)	-12.0	3781	nt
Cc1noc(C)c1NC(=O)N(C)C[C@H]1Oc2ccc(NC(=O)Cc3ccccc3)cc2C(=O)N([C@H](C)CO)C[C@@H]1C	-12.8	2957	nt
CCOC(=O)C1=C(N)n2c(s/c(=C\c3cccnc3)c2=O)=C(C#N)C1c1cccnc1 (centres undefined)	-9.4	5355	nt
CCOC(=O)N1CCC(NS(=O)(=O)c2cc3c(cc2Br)CCN3C(=O)CC)CC1	-24.9	3300	nt
O=C(NC[C@@H]1CCCO1)c1cccc2c1C(=O)c1ccc(N3CCOCC3)cc1S2(=O)=O	-8.6	3924	nt
C[C@H](CO)N1C[C@H](C)[C@@H](CN(C)C(=O)Nc2ccc(C(F)(F)F)cc2)Oc2ccc(NS(=O)(=O)c3ccc(F)cc3)cc2C1=O	-6.0	2930	nt
Cc1cccc(CCN2C(N(C)C)=NC[C@@H]2Cc2ccccc2)c1	3.0	3060	nt
C=CC[C@@H](CC(=O)N(CCO)Cc1ccccc1)C(=O)NC[C@H](OC(=O)[C@@H](CC=C)Cc1ccc(F)cc1)c1ccccc1	3.3	3966	nt
CC1=C(/C=C/C(C)=C/C=C/C(C)=C/C(=O)Nc2ccc(O)cc2)C(C)(C)CCC1	-9.9&-14.6	3468&4080	nt
CC(C)CC1C(=O)N(Cc2cn(CC3CCCCC3)nn2)CCS(=O)(=O)N1Cc1ccc(-c2cccc(C#N)c2)cc1 (centres undefined)	3.3	3028	nt
CCCCCCCCNS(=O)(=O)CCNCc1ccccc1OC	-13.3	3967	nt
O=C(Nc1ccccc1N1CCOCC1)c1ccc([N+](=O)[O-])s1	-0.3	3074	nt
O=C(C[C@H]1C/C=C\C[C@H](Cc2ccc(F)cc2)C(=O)O[C@@H](c2ccccc2)CNC1=O)NCCO	-15.2	3897	nt

Of the compounds above, 10 have an aryl methoxy group:
SMILES	PrP 5UTR inh	Bead autofluor	BJeLR lethal
COc1cccc(/C=N/NC(=O)Cn2cnc3c2c(=O)n(C)c(=O)n3C)c1	nt	5937	-2.2
COc1ccc(/C(C)=N/NC(=O)c2ccc(CSc3cccc4cccnc34)cc2)cc1OC	nt	10983	-3.1
COc1cc(N2CCCC2)c(OC)cc1/C=C(/C#N)c1cccc(F)c1	nt	23531*	-1.8
COc1ccc(CC(=O)N/N=C/c2c(C)n(C)c3ccccc23)cc1OC	nt	4671	10.1
CCOC(=O)[C@H]1[C@H]2COc3ccc(OC)cc3[C@@H]2N2C(=O)c3ccccc3NC(=O)[C@@]12C	-5.2	2935	nt
COc1cc2c(cc1OC)C(C(N)=O)NCC2 (centres undefined)	-10.8	4326	nt
COc1ccc(/C=C2\C(=O)NC(=O)c3ccccc32)cc1OC	-39.1	5002	nt
COc1cccc(-c2sc3ccc(OC)cc3c2-c2ccc(O)cc2)c1	-2.8	2850	nt
COc1cc([C@@H]2CC=C(C(=O)O)[C@H](c3ccc(Cl)cc3)N2S(=O)(=O)c2ccc(C)cc2)cc(OC)c1OC	10.2	3745	nt
CCCCCCCCNS(=O)(=O)CCNCc1ccccc1OC	-13.3	3967	nt
